# Hsc70 = Hsc70 inhibitors, probe displacement, primary screen, biochemical, fluorescence polarization (AID 568); Heat shock cognate 71 kDa protein (Homo sapiens); Hsc70 fluorescence polarization, probe displacement; higher % means a stronger effect; strong numbers were not always called active; one-dose displacement, % at 20 µM; IC50 in µM for titrated hits; 83,000 tested, under 10 active;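 active = displacement above 50% without optical interference and an IC50 on retest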;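 note: ATPase domain with a fluorescein-tagged ATP probe; 0% = vehicle and 100% = excess ADP; read after one hour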
# WNV protease inh = inhibitors of WNV NS2B-NS3 protease, primary screen, biochemical, fluorogenic substrate. fluorogenic substrate Ex360/Em465; active compounds read low. z-score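 (tested at a level between 10 and 100 µM)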. 65,000 tested, 0.18% active. AID 577, 2007;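 active = z-score at -3 or under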;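 note: score is relative to mean and spread of the compound wells of a plate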
# Target sequence (P06935 1371-1501 limits assumed): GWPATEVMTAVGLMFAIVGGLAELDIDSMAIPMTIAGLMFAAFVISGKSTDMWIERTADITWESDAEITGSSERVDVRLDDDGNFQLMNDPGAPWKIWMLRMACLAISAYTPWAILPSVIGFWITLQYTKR
# Target sequence (P06935 1502-1679 limits assumed): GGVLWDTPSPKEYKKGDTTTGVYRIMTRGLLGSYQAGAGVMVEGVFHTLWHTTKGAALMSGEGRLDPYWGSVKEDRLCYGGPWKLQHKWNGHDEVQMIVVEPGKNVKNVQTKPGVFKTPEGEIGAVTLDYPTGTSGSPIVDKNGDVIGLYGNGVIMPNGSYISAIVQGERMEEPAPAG
# MT1-MMP reporter = inhibitors of MT1-MMP promoter transcription, cell-based, luciferase reporter, luminescence (AID 618); 87,000 tested, 0.62% active; calls from a first round at 10 µM; hits with a dose series show EC50 in µM; MT1-MMP promoter luciferase reporter cells, luminescence;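 active = over half of the reporter light lost at 10 µM or EC50 under 50 µM; inactive = the rest and hits that failed the dose series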;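 note: actives suppress MT1-MMP promoter-driven transcription so potencies describe inhibitors; HT1080 fibrosarcoma cells; overnight exposure; toxic or luciferase-blocking compounds were not removed from the actives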
# The depositor's hits bear a star; i = inactive; nt = no result given.
# Results follow in this order: Hsc70	WNV protease inh	MT1-MMP reporter
> CCN(CC)C(=O)CSc1nnc(-c2ccco2)n1N
 : -3.9%	nt	i
> CCOc1ccc2nc(-c3ccc(OC)c(OC)c3)cc(C(=O)O)c2c1
 : -1.6%	-0.5	i
> Nc1c(C(=O)c2ccccc2)sc(Nc2ccccc2)c1S(=O)(=O)c1ccccc1
 : 1.3%	nt	i
> COC(=O)c1sccc1NC(=O)c1csc(C)c1
 : -4.1%	-0.04	i
> O=c1cc(NC2CCCCCC2)[nH]c(=O)[nH]1
 : 1.0%	-0.91	i
> CCCCOc1ccc(C(=O)NCC(=O)NCC(=O)OCC)cc1
 : -3.5%	-0.79	i
> C=CCn1c(SCC(=O)Nc2nccs2)nnc1-c1ccco1
 : -0.2%	nt	i
> C=C(C)c1cccc(C(C)(C)NC(=O)NCC2CCCO2)c1 (stereo unspecified)
 : -1.6%	-0.46	i
> CNS(=O)(=O)c1ccc(Oc2ccc(S(=O)(=O)NC)cc2)cc1
 : 1.2%	-0.54	i
> Cn1c(SCc2c(Cl)cccc2Cl)nnc1-c1cccs1
 : 6.3%	1.16	i
> O=C(O)CCCCCCC1C(=O)NC(=O)N1CCC(O)C1CCCCC1 (stereo unspecified)
 : -3.8%	0.3	i
> CC(C)(C)NC(=O)Cn1nnc(-c2cccs2)n1
 : 6.9%	-0.00535	i
> CCCc1nc(SCC(=O)N2CCCc3ccccc32)c2c(=O)n(C)c(=O)n(C)c2n1
 : -0.3%	0.25	i
> CC1(C)Cc2c(sc3nc(SCC#N)n(C4CCCCC4)c(=O)c23)CO1
 : -0.1%	-0.47	i
> O=C1CC(N2CCN(Cc3ccccc3)CC2)C(=O)N1CCc1ccccc1 (stereo unspecified)
 : -3.7%	-0.59	i
> O=C(NCc1ccccc1F)c1ccc2c(c1)OCO2
 : -2.3%	nt	i
> COc1cc(OC)c(OC)cc1CN(C)CCc1ccccn1
 : 0.8%	0.58	i
> O=C(CSc1nnnn1C1CCCCC1)Nc1cccc(NC(=O)c2ccco2)c1
 : 4.2%	0.15	i
> Cc1noc(C)c1COC(=O)CN(C)S(=O)(=O)c1ccc(Cl)cc1
 : 2.7%	0.71	i
> COc1ccc(N2CCN(c3nc4c(c(=O)n(C)c(=O)n4C)n3CCCc3ccccc3)CC2)cc1
 : 2.9%	-0.12	i
> COc1cccc(C(=O)COC(=O)C(C)N2C(=O)c3ccccc3C2=O)c1 (stereo unspecified)
 : 5.0%	1.03	i
> COc1cccc(-c2cc3nc4c(c(N5CCC6(CC5)OCCO6)n3n2)CCCC4)c1
 : -2.3%	0.62	i
> Cc1ccc(OC(=O)COc2ccccc2)c(-n2nc3ccccc3n2)c1
 : 4.3%	nt	i
> CC(=O)Nc1ccc(S(=O)(=O)c2ccc(N)cc2)cc1
 : -0.8%	0.19	i
> CCC(C(=O)OC)n1cnc2c(cnn2-c2ccc(Cl)cc2)c1=O (stereo unspecified)
 : 2.0%	0.87	i
> CCOc1ccccc1C(=O)N(C)Cc1cc2cc(OC)ccc2[nH]c1=O
 : -6.4%	0.77	i
> COc1ccccc1OCC(=O)c1[nH]c(C)c(C(C)=O)c1C
 : -5.6%	-1.63	i
> COc1ccc2[nH]c(C)c(CCN3C(=O)C4CC=CCC4C3=O)c2c1 (stereo unspecified)
 : 0.2%	-0.65	i
> O=C(CCN1C(=O)c2ccccc2C1=O)N1CCN(Cc2ccccc2)CC1
 : 3.6%	0.27	i
> Cn1c2c(c(=O)n(C)c1=O)C(c1cc3c(cc1Br)OCO3)CC(=O)N2 (stereo unspecified)
 : 4.4%	1.29	i
> CCCC(C(=O)O)N1C(=O)/C(=C2\C(=O)N(C)c3ccccc32)SC1=S (stereo unspecified)
 : 3.5%	nt	i
> Cc1cccc(C)c1Nc1nnc(SCC(=O)NCc2ccco2)s1
 : -1.9%	1.08	i
> O=C(COc1ccc(Cl)cc1)NCc1nnc(SCC(=O)Nc2ccc3c(c2)OCCO3)o1
 : -1.1%	-0.03	i
> Cc1cccc2cc(CN(CCN3CCOCC3)C(=O)NCc3ccccc3)c(=O)[nH]c12
 : 5.9%	-1.31	i
> O=C(O)c1ccc2c(c1)C(=O)N(CCC1=CCCCC1)C2=O
 : -10.5%	1.49	i
> COc1ccc(NC(=O)c2ccccc2F)cc1Cl
 : -2.1%	nt	i
> COc1ccc(S(=O)(=O)CCC(=O)NCCc2ccc(S(N)(=O)=O)cc2)cc1
 : -2.4%	0.43	i
> CCN(CC)CCNC(=O)c1ccc(N)cc1
 : 2.0%	-3.18*	i
> Cc1occc1-c1nnc(SCC(=O)NC(C)(C)C)n1C(C)c1ccccc1 (stereo unspecified)
 : -8.9%	-0.89	i
> CCOC(=O)N1CCN(CC(O)COCc2ccc(Cl)cc2)CC1 (stereo unspecified)
 : -1.2%	nt	i
> Cc1cc(O)c(C(C)C)cc1NC(=O)Cn1nc(C)c2ccccc2c1=O
 : -0.2%	0.34	i
> CN(C)CCCN1C(=O)C(=O)/C(=C(/O)c2ccc(S(=O)(=O)N(C)C)cc2)C1c1ccncc1 (stereo unspecified)
 : -0.1%	1.89	i
> O=C(c1ccc(Br)o1)N1CCN(c2ccc(F)cc2)CC1
 : -2.8%	0.68	i
> Cc1oc(C(C)(C)C)cc1C(=O)N1CCCC1C(=O)O (stereo unspecified)
 : 6.5%	nt	i
> CNC(=O)CSc1nnc(-c2cccc(S(=O)(=O)N3CCOCC3)c2)n1-c1ccc(F)cc1
 : 2.2%	-0.15	i
> Cc1cc(NC(=O)c2cnn3c(C(F)(F)F)cc(-c4ccccc4)nc23)no1
 : 5.9%	-0.17	i
> O=C(c1ccc2nccnc2c1)N1CCN(Cc2ccc3c(c2)OCO3)CC1
 : -3.8%	-0.06	i
> c1csc(CNc2ncnc3nc[nH]c23)c1
 : 2.0%	-0.67	i
> COC(=O)c1cc2oc3ccccc3c2n1CC(=O)Nc1ccccc1OC
 : -1.6%	-0.86	i
> O=C(Nc1nc(=O)c2ccccc2s1)c1ccccc1
 : -3.1%	0.31	i
> CC(=O)N1CN(C2CCS(=O)(=O)C2)Cc2c1sc1c2CCCC1 (stereo unspecified)
 : -3.0%	1.22	i
> CC(C)CC(=O)Nc1nc(=S)ss1
 : 0.6%	nt	i
> O=C(O)c1cc2n(n1)C(C(F)(F)F)CC(c1ccccc1)N2 (stereo unspecified)
 : -4.0%	-0.33	i
> Cc1[nH][nH]c(=O)c1C(c1ccc(-c2ccc(Cl)c(Cl)c2)o1)c1c(C)[nH][nH]c1=O
 : 1.9%	nt	i
> O=C(O)CCc1cc(I)c(Oc2ccc(O)c(I)c2)c(I)c1
 : -3.8%	-0.1	i
> CCn1c2ccccc2c2cc(NC(=O)Cc3ccc(S(=O)(=O)N4CCOCC4)s3)ccc21
 : -3.0%	-0.65	i
> CC1CCCCC1NC(=O)c1nnc(Cc2ccc(Cl)cc2)o1 (stereo unspecified)
 : 6.0%	1.04	i
> O=C(CSc1nnc(-c2csc3c2CCCC3)o1)Nc1ccccc1
 : 0.2%	-1.47	4.27µM*
> Cc1oc2c(CN3CCCC3)c(O)ccc2c(=O)c1-c1ccc(Br)cc1
 : 4.4%	1.29	i
> Cc1csc2ncc(C(=O)N3CCc4ccccc43)c(=O)n12
 : -0.3%	-1.05	i

# Following part
# Results follow in this order: Hsc70	WNV protease inh	MT1-MMP reporter
> CCOC(=O)c1cc2c(=O)n3ccccc3nc2n(Cc2ccccc2)c1=N
 : -7.5%	2.44	i
> Cn1c(=O)cc(SCC(=O)NCC2CCCO2)c2ccccc21 (stereo unspecified)
 : 0.0%	1.82	i
> O=C(CO/N=C/c1ccccc1)N1c2ccccc2Oc2ccccc21
 : 0.8%	nt	i
> CSc1cc(-c2ccccc2)n(Cc2ccc(Cl)cc2Cl)c(=O)c1C#N
 : 3.1%	nt	i
> CC1CCCC(C)N1C(=O)CSc1nnc(NC(=O)Cc2cccs2)s1 (stereo unspecified)
 : -10.0%	0.62	i
> O=C(CCN1C(=O)c2ccccc2C1=O)Nn1cnnc1
 : 6.1%	0.22	i
> COc1cc(OC)c(C(=O)NC2CC(C)(C)NC(C)(C)C2)cc1OC
 : 4.1%	-0.43	i
> Cc1cc(C)n2nc(SCc3nc4ccccc4[nH]3)nc2n1
 : 2.2%	0.78	i
> COCc1cc(C(C)=O)ccc1OC
 : -2.2%	nt	i
> CC1Oc2ccccc2N(CC(=O)c2ccccc2)C1=O (stereo unspecified)
 : -0.7%	-0.77	i
> CCOc1ccccc1-n1c(SCC(=O)NCc2ccco2)nnc1-c1ccncc1
 : 3.6%	-0.81	i
> COc1ccc(S(=O)(=O)N(C)CC(=O)N2CCOCC2)cc1Cl
 : -1.0%	-0.3	i
> N#CC1=C(N)Oc2n[nH]c(-c3cccs3)c2C1C1CCCCC1 (stereo unspecified)
 : 2.2%	nt	i
> Cc1cc(C(=O)O)c(CCCN)s1
 : 2.3%	-0.76	i
> COc1ccc(N2CCN(C(=O)c3ccc(C)c(Cl)c3)CC2)cc1
 : 6.2%	0.6	i
> CC(C)CC[n+]1ccn(C2=C([O-])c3ccccc3C(=O)/C2=N\S(=O)(=O)c2ccccc2)c1
 : -0.3%	nt	i
> Clc1cccc(CSC2=NCCCN2)c1
 : 0.5%	nt	i
> O=C(O)CCCC(=O)NCCc1ccncc1
 : 7.1%	-0.12	i
> CCNCC(=O)N1c2ccccc2CCc2ccc(NC(C)=O)cc21
 : -6.0%	nt	i
> COc1ccc(-n2cnc3c(sc4nccc(N(C)C)c43)c2=O)cc1
 : -3.0%	-0.23	i
> O=C(OCc1cc2ccccc2[nH]c1=O)c1ccccn1
 : -3.5%	-0.11	i
> CC(=O)N1CCN(c2ccc(NCc3ccc(F)cc3)cc2)CC1
 : -0.1%	-0.18	i
> CC(C(=O)NC1CCCc2ccccc21)N1CCN(Cc2ccc3c(c2)OCO3)CC1 (stereo unspecified)
 : -1.5%	0.36	i
> CC1(NC(=O)N2CCCCC2)CCS(=O)(=O)C1 (stereo unspecified)
 : 5.1%	0.08	i
> CC1Cc2ccccc2N1C(=O)CSCC(=O)O (stereo unspecified)
 : 2.0%	-0.46	i
> COc1ccc(-n2c(Cc3cccn3C)nnc2SCC(=O)N2CCOCC2)cc1
 : 3.9%	-0.3	i
> Cc1ccc(-c2n[nH]c(=O)c3ccccc23)cc1S(=O)(=O)NCCN1CCOCC1
 : -7.6%	-0.29	i
> COc1ccccc1NC(=O)Nc1ccc2c(c1)OCCO2
 : 2.8%	-0.75	i
> CCN(Cc1ccccc1)S(=O)(=O)c1ccc(S(=O)(=O)N2CCN(CCC#N)CC2)cc1
 : 6.2%	-0.13	i
> O=C(OC1CSc2nc3ccccc3n2C1)c1ccco1 (stereo unspecified)
 : 5.7%	-1.13	i
> CCOC(=O)Nc1sc(C)nc1-c1ccccc1
 : -2.2%	1.71	i
> O=C(CN1C(=O)c2ccccc2C1=O)Nc1nc(-c2cccc([N+](=O)[O-])c2)cs1
 : -1.8%	nt	i
> CC(=O)Nc1cc(NC(C)=O)c(CC(C)C)s1
 : 0.3%	-0.25	i
> c1ccc(-n2ncc3c(NCC4CCCO4)ncnc32)cc1 (stereo unspecified)
 : -1.2%	1.69	i
> CCOC(=O)N1CCC(NC(=O)c2ccc3snnc3c2)CC1
 : 4.0%	-0.77	i
> O=C(O)C1CC=CCC1C(=O)N1CCc2ccccc21 (stereo unspecified)
 : 0.7%	nt	i
> CCCOc1ccccc1C1NC(=O)NC(C)=C1C(=O)OCCOC (stereo unspecified)
 : -0.7%	-0.72	i
> Cc1ccc(Cl)c2c1NC(=O)C2(O)CC(=O)c1ccc(F)cc1 (stereo unspecified)
 : -1.8%	nt	i
> CCCCn1c(-c2nonc2NC(=O)c2ccccc2Cl)nc2ccccc21
 : 1.5%	-1.15	i
> CCOCCCn1c(-c2ccc(Cl)cc2)n[nH]c1=S
 : -1.7%	nt	i
> O=C(COC(=O)C1=COCCO1)Nc1ccc2c(c1)OCO2
 : 12.1%	-0.65	i
> CCCCOC(=O)Nc1sc2c(c1C(=O)OC)CCC2
 : -6.2%	1.33	i
> COc1ccc(OC)c(NC(=O)[C@H]2CC=CC[C@H]2C(=O)O)c1
 : -1.6%	0.54	i
> c1ccc2c(c1)CCCN2Cc1nnnn1C1CCCC1
 : 3.9%	0.52	i
> N#CC(C#N)C(c1ccsc1)c1c(-c2ccccc2)[nH][nH]c1=O (stereo unspecified)
 : -4.2%	-0.6	i
> CCn1c(SCC(=O)NC(C)(C)C)nc(O)cc1=O
 : -1.7%	-0.39	i
> O=C(CN1C(=O)c2ccccc2S1(=O)=O)N1CCN(Cc2ccc3c(c2)OCO3)CC1
 : -2.7%	0.94	i
> CCCCC(CC)CNC(=O)CN(C)S(=O)(=O)c1cccc2nsnc12 (stereo unspecified)
 : 1.5%	-0.92	i
